# Assay outcomes (PubChem)
# ugtP null kill = growth inhibition of ugtP-null S. aureus, primary screen, RN4220 ugtP deletion, OD600; 16 h; some inactives read as strong as hits; growth inhibition, % (test concentration not listed); 330,000 compounds, 0.54% hits;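 active = z-score under -3 and OD600 up to 0.15 on both plates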;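 note: plate controls were untreated wells for no effect and antibiotic for full effect; wells of about 80 µL received 100 nL stock; the first replicate is given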
# BJeLR viability = MLPCN primary cell-based screen for lethality selective to Ras in HRASV12 cells; BJeLR (HRASV12) viability, CellTiter-Glo ATP luminescence, 48 h; reference of the scale not given here; inhibition, % (concentration not given with the values); 300,000 compounds, 0.17% hits;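 active = replicate mean above 50%; inconclusive = above 50% but judged a plate artefact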;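 note: 50 nL library stock added to about 25 µL; numbers are from one replicate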
# PrP UTR inh = inhibition of PrP 5' UTR reporter expression | cell-based PrP 5' UTR mRNA reporter, plate reader | inhibition, % (test concentration not listed) | 340,000 compounds, 0.35% hits;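 active = every replicate at 50% or more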;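 note: 0 = median of the neutral control wells; tested in H4 reporter cells; numbers are from one replicate; inactives centre near -14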
# Sa RN4220 lethal = growth inhibition of S. aureus RN4220, primary screen, OD600; 16 h; 330,000 compounds, 0.33% hits; inhibition, % (no concentration beside the values); AID 1259311, 2017;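 active = z-score of -3 or lower and OD600 up to 0.18 on both plates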;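 note: plate controls were untreated cells for no effect and reference antibiotic for full effect; stock transfer was 100 nL into about 80 µL; one replicate is shown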
# Autofluor counter = flagged as autofluorescent in microsphere protease counterscreen | fluorescence intensity (test concentration not listed) | 360,000 compounds, 3.1% hits | compound autofluorescence counterscreen, microsphere flow cytometry; active compounds read high;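 active = at least 3 SD above the mean of all compounds, about 16000 in these data; inconclusive = too few beads counted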;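 note: 100 nL of 1 mM stock went into each well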
# Mtb hypoxia rep = PubChem AID 1159583. fluorescence inhibition, % (concentration not given with the values). 300,000 compounds, 0.1% hits. M. tuberculosis hypoxia-regulated fluorescent reporter, fluorescence;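 active = 35 to 45% if threefold the growth effect, above 45% if 1.5-fold the growth effect; inactive = the rest, general growth blockers included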;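 note: wells of about 50 µL received 100 nL stock; 0% = vehicle wells and 100% = reference inhibitor wells; whole bacteria with a GFP reporter of the hypoxia response; strong numbers were not always called active; many hits fall short of the cut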
# Mtb hypoxia rep growth = recorded beside Mtb hypoxia rep, whose call it bears; growth inhibition, %; measured here: M. tuberculosis growth (absorbance);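 0% = vehicle and 100% = reference antibiotic; read after six days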
# The depositor's hits bear a star; ? = inconclusive; . = not tested or not shown; & = joins results of further samples.
SMILES,ugtP null kill,BJeLR viability,PrP UTR inh,Sa RN4220 lethal,Autofluor counter,Mtb hypoxia rep,Mtb hypoxia rep growth
CCC1CCCCN1S(=O)(=O)c1ccc(NC(=O)c2cccnc2)cc1 (stereo not drawn),-7.1,-9.8,-10.9,1.4,?,-9.1,3.9
CCN(CC)S(=O)(=O)c1cccc(-c2n[nH]c(=S)n2N=Cc2ccc(Br)cc2)c1,-0.2,.,.,18.1,.,1.9,2.3
NS(=O)(=O)c1ccc(NC(=S)NC(=O)c2ccc3c(c2)OCO3)cc1,11.7,-2.3,-52.7,3.9,3996,-4.0,-5.1
Cc1cc(Nc2ccc(C)c(C)c2)c2ccccc2n1,-10.0,-3.0,0.6,-5.2,3784,-6.4,9.5
COc1ccc2cc3cc(C(=O)N4CCN(c5ccccn5)CC4)oc3nc2c1,-12.1,-0.2,-20.6,8.4,.,-6.2,-4.6
CCNC(=O)N1CCC(n2nccc2NC(=O)CCCc2ccccc2)CC1,2.6,0.6,-3.8,0.3,5841,12.0,4.4
CN1CCN(S(=O)(=O)c2ccc(NC(=O)COc3ccccc3)cc2)CC1,6.1,-5.7,-6.5,2.8,1968,-4.1,8.7
CC(OC(=O)Cc1n[nH]c(=O)c2ccccc12)C(=O)Nc1ccc(S(N)(=O)=O)cc1 (stereo not drawn),0.2,.,-15.1,-0.6,.,6.7,-3.9
CCOC(=O)C1=NNC2(c3ccc(C)cc3)C(=O)N(c3ccc(Cl)cc3)C(=O)C12 (stereo not drawn),5.3,4.1,-15.7,3.3,2096,6.6,6.7
O=C(Cc1c(F)cccc1Cl)Nc1ccccc1C(=O)N1CCCCC1,3.0,-7.6,-14.6,1.9,5573,1.0,4.9
C=CCn1c(COc2ccccc2F)nnc1SCC(=O)N1CC(=O)Nc2ccccc21,-5.8,3.3,-21.7,2.1,19940*,2.1,7.0
O=C(NCc1ccccn1)C(=O)NCC1OCCN1S(=O)(=O)c1ccc(Cl)cc1 (stereo not drawn),.,3.0,-19.5,.,6283,.,.

# Structural class, those above containing two or more sulfur atoms.
SMILES,ugtP null kill,BJeLR viability,PrP UTR inh,Sa RN4220 lethal,Autofluor counter,Mtb hypoxia rep,Mtb hypoxia rep growth
CCN(CC)S(=O)(=O)c1cccc(-c2n[nH]c(=S)n2N=Cc2ccc(Br)cc2)c1,-0.2,.,.,18.1,.,1.9,2.3
NS(=O)(=O)c1ccc(NC(=S)NC(=O)c2ccc3c(c2)OCO3)cc1,11.7,-2.3,-52.7,3.9,3996,-4.0,-5.1

# More compounds:
SMILES,ugtP null kill,BJeLR viability,PrP UTR inh,Sa RN4220 lethal,Autofluor counter,Mtb hypoxia rep,Mtb hypoxia rep growth
COc1ccc(C(C)=O)cc1CSc1nc(C)cc(C)n1,6.7,-3.1,-42.2,1.1,4301,6.6,5.9
COc1ccc(-c2nn(-c3ccccc3)cc2C(=O)N2CCOCC2)cc1,1.5,-3.5,-20.0,3.2,6207,2.9,12.6
Cc1ccc(S(=O)(=O)C(C#N)c2nc3ccccc3nc2N2CCCC2)cc1 (stereo not drawn),.,8.1,-22.7,.,3367,.,.
COc1cc(/C=N/NC(=O)c2ccncc2)ccc1OC(=O)c1cc(OC)c(OC)c(OC)c1,.,-13.8,-10.7,.,4031,.,.
O=C(Nc1ccnn1C1CCN(C/C=C/c2ccc(F)cc2)CC1)C1CCCC1,14.7,-9.1,0.7,6.1,4347,-2.7,-6.8
CCCCc1cc(=O)oc2c(CN3CCN(C)CC3)c(O)ccc12,3.9,-0.1,-5.7,-1.7,3144,-1.2,-3.9
CN1CCC23c4ccccc4NC1C21CCN(C)C3Nc2ccccc21,-9.6,-12.0,-24.0,2.4,5384,.,.
CN(CCCN1CCCCC1)C(=O)c1cc(COc2ccc(F)cc2F)on1,6.8,-6.7,-9.1,1.8,5869,4.1,-1.6
CCOC(=O)Cc1csc(NC(=O)c2ccc3ncsc3c2)n1,7.3,-5.4,-47.1,-0.2,5009,14.9,6.8
COc1cccc(CNCCO)c1OCc1ccccc1,8.5,2.3,-10.7,6.3,3871,0.7,-2.5
CSc1ncccc1C(=O)OCC(=O)Nc1cc(C(F)(F)F)ccc1N1CCOCC1,-4.4,2.1,-11.2,5.4,9383,17.3,2.0
CC(C)OC(=O)c1cc2c(ccn2C)n1CC(=O)N(Cc1ccccc1)c1ccc(F)cc1,-5.7,0.8,-9.6,1.6,2336,6.2,0.6
O=[N+]([O-])c1ccc(/C=N/Nc2ncccc2[N+](=O)[O-])s1,.,8.4,-16.7,.,4229,.,.
O=C(Oc1cccc(NC(=O)c2ccco2)c1)c1cccc(S(=O)(=O)N2CCCCC2)c1,1.3,5.8,-21.4,9.3,4089,12.7,5.3
CN(C)C(CNC(=O)CSc1nnc(-c2ccco2)o1)c1ccccc1 (stereo not drawn),-3.8,9.5,-13.6,-1.3,5737,-7.9,15.3
O=C(c1cc2nc(-c3ccco3)cc(C(F)(F)F)n2n1)N1CCCc2ccccc21,-0.2,7.3,-17.4,4.9,2576,0.7,1.8
CCOc1ccc(C(=O)C(C)OC(=O)c2cnc(C)cn2)cc1 (stereo not drawn),8.0,9.2,-10.8,3.8,6579,7.0,4.4
CC1CN(CC(=O)NCc2ccccc2)CC(C)O1 (stereo not drawn),-1.8,-3.5,-3.5,2.0,3244,-4.8,2.0
COc1ccc(-n2c(=S)[nH]c3cc(C(=O)O)ccc3c2=O)cc1,2.0,1.7,-34.5,3.2,4063,8.8,3.1
CC(C)=C[C@H]1C[C@H](C)[C@H]2CC[C@H](C)c3c(O[C@@H]4OC[C@@H](O)[C@H](O)C4O)c(O)c(C)c1c32 (stereo partly drawn),77.4,.,-22.1,-6.5,3878,0.5,-3.7
COc1ccc(OCC(=O)Nc2ccc3c(c2)nc(CCNC(C)=O)n3C)cc1,1.0,-1.4,-28.7,3.5,4037,-5.1,2.1
CC(=O)N(C)c1ccc(N=Nc2c(C)[nH]n(C(N)=S)c2=O)cc1,11.6,2.1,-92.8,3.8,2775,15.6,3.7
Cc1cn(-c2cc(C(=O)Nc3ccc(C)c(NC(=O)C(=O)c4c[nH]c5ccccc45)c3)cc(C(F)(F)F)c2)cn1,.,-14.2,20.4,.,3286&4047,.,.
COc1ccc(C[C@H]2c3cc(O)c(OC)cc3CC[N+]2(C)[O-])cc1O (stereo partly drawn),.,-10.6,-43.9,.,3680,.,.
CCCc1cc(C(=O)NCCc2ccc(OC)c(OC)c2)no1,4.4,5.7,-21.3,-9.2,5877,15.8,10.4
O=C(COC(=O)Cc1cn2ccsc2n1)Nc1nc2ccccc2s1,-3.4,-2.8,-5.8,1.9,4739,.,.
Cc1cc(C)cc(NC(=O)C/C(N)=N/O)c1,7.0,-13.9,-23.6,4.6,6896,-0.5,4.1
Cc1ccc(-c2ccc(=O)n(CCC(=O)N3CCC4(CC3)OCCO4)n2)cc1,9.5,18.9,-12.2,2.6,3823,5.7,-10.2
COc1cc(/C=C2\SC(=O)N(Cc3ccc(F)cc3)C2=O)cc([N+](=O)[O-])c1O,1.2,3.6,3.6,5.4,4418,7.7,0.4
Cc1cccc(C2N(c3nccs3)C(=O)C3CCCN32)c1 (stereo not drawn),7.2,2.2,-27.7,0.4,9572,-1.0,-1.3
O=C(Nc1ccc2nc(-c3ccccn3)c(-c3ccccn3)nc2c1)N1CCOCC1,8.7,1.0,-26.1,6.8,4215,5.3,-2.4
Cc1cccc(/C=N/c2sc3c(c2C#N)CCN(Cc2ccccc2)C3)c1O,.,4.0,-16.3,.,8469,.,.
CCOC(=O)c1c(C)n(C)c2ccc(OC)c(NC(=O)CN3CCC(C(=O)OCC)CC3)c12,2.4,-2.9,-33.2,4.4,3597,4.4,1.2
O=S(=O)(Nc1ccccc1Cl)c1ccc(F)cc1,-9.4,1.4,-21.2,13.4,10059,7.9,4.6
CCn1c(CCn2c3ccccc3c3ccccc32)n[nH]c1=S,4.9,-6.3,-17.4,9.2,2051,3.9,-5.3
O=C(c1cccc([N+](=O)[O-])c1)c1ccc2c(c1)OCCOCCOCCOCCO2,6.1,-3.6,.,3.9,6532,17.2,6.5
C=CCn1c(SCc2cc(=O)n3ccsc3n2)nc2sc(C)c(C)c2c1=O,-7.4,-7.9,.,-0.8,.,-0.5,-2.4
CN(C)C(=O)c1ccc(NC(=O)c2ccccc2SCC(=O)N2CCCC2)cc1,-1.3,.,-19.4,5.7,8880,5.6,-2.1
Cc1cc(C)n(CC(=O)Nc2ccc3c(c2)OCO3)c(=O)c1C#N,0.2,-3.0,-11.3,3.6,.,-6.7,-3.0
COc1ccc(C(=O)/C(C#N)=N/Nc2ccc([N+](=O)[O-])cc2)cc1,.,32.2,27.2,.,6602,.,.
O=C(N/C(=C/c1cn(-c2ccccc2)nc1-c1ccccc1)C(=O)N1CCOCC1)c1ccc(Cl)cc1Cl,9.3,-4.1,1.6,41.9,2396,6.8,2.3
CCOc1ccccc1C(=O)Nc1nnc(C(C)C)s1,2.5,-3.2,-15.3,4.1,5901,-2.2,4.9
CS/C(=N\NC(N)=O)c1ccccc1,.,-0.9,3.7,.,2576,.,.
CN1C(=O)C(C)(C)c2cc(S(=O)(=O)N3CCC(C(=O)NCc4ccc(Cl)cc4)CC3)ccc21,9.1,3.4,-29.4,-1.9,5604,0.6,-1.8
O=C(c1cc(-c2ccccc2O)on1)N1CCCCCC1,3.0,6.4,-50.1,11.1,3983,8.2,0.6
O=C(OCc1nnc(-c2ccccc2)o1)c1cn(-c2ccccc2)nc1-c1ccccc1,-10.8,3.2,-22.1,-2.0,3743,.,.
COC(=O)C1=CO[C@H](C)[C@H]2CN3CC[C@@]4(C(=O)Nc5ccccc54)[C@@H]3C[C@H]12,-4.9,2.9,-2.4,2.5,5418,.,.
Cc1ccc(C(C(=O)NCC2CCCO2)N(C(=O)c2snc(C(N)=O)c2N)c2ccc(C)c(C)c2)o1 (stereo not drawn),14.1,-4.3,-8.4,1.7,3829,-1.0,5.8
O=C(NN=Cc1cccnc1)c1cc(-c2cccs2)nc2ccccc12,-4.1,.,.,3.2,.,-2.0,0.0
ClCC(Br)CBr (stereo not drawn),4.6,.,3.1,1.3,5842,13.7,14.9
COc1ccccc1N1CCN(C(=O)CCC(=O)Nc2nnc(CC(C)C)s2)CC1,-2.2,32.8,-20.2,2.1,5568,10.3,3.8
CCOC(=O)C1=C(C)Nc2ccccc2N=C1NC(=O)/C=C/c1ccc(OC)cc1OC,6.4,-23.5,-9.7,6.0,3231,17.3,7.1
Cc1ccc(NCC2(N=Cc3ccccc3)OC(CO)C(O)C2O)cc1 (stereo not drawn),5.9,.,-21.5,3.0,4049,1.6,1.5

# Among those listed so far, these have fluorine.
SMILES,ugtP null kill,BJeLR viability,PrP UTR inh,Sa RN4220 lethal,Autofluor counter,Mtb hypoxia rep,Mtb hypoxia rep growth
O=C(Cc1c(F)cccc1Cl)Nc1ccccc1C(=O)N1CCCCC1,3.0,-7.6,-14.6,1.9,5573,1.0,4.9
C=CCn1c(COc2ccccc2F)nnc1SCC(=O)N1CC(=O)Nc2ccccc21,-5.8,3.3,-21.7,2.1,19940*,2.1,7.0
O=C(Nc1ccnn1C1CCN(C/C=C/c2ccc(F)cc2)CC1)C1CCCC1,14.7,-9.1,0.7,6.1,4347,-2.7,-6.8
CN(CCCN1CCCCC1)C(=O)c1cc(COc2ccc(F)cc2F)on1,6.8,-6.7,-9.1,1.8,5869,4.1,-1.6
CSc1ncccc1C(=O)OCC(=O)Nc1cc(C(F)(F)F)ccc1N1CCOCC1,-4.4,2.1,-11.2,5.4,9383,17.3,2.0
CC(C)OC(=O)c1cc2c(ccn2C)n1CC(=O)N(Cc1ccccc1)c1ccc(F)cc1,-5.7,0.8,-9.6,1.6,2336,6.2,0.6
O=C(c1cc2nc(-c3ccco3)cc(C(F)(F)F)n2n1)N1CCCc2ccccc21,-0.2,7.3,-17.4,4.9,2576,0.7,1.8
Cc1cn(-c2cc(C(=O)Nc3ccc(C)c(NC(=O)C(=O)c4c[nH]c5ccccc45)c3)cc(C(F)(F)F)c2)cn1,.,-14.2,20.4,.,3286&4047,.,.
COc1cc(/C=C2\SC(=O)N(Cc3ccc(F)cc3)C2=O)cc([N+](=O)[O-])c1O,1.2,3.6,3.6,5.4,4418,7.7,0.4
O=S(=O)(Nc1ccccc1Cl)c1ccc(F)cc1,-9.4,1.4,-21.2,13.4,10059,7.9,4.6

# Outcome played no part in choosing rows, and some 3.9% of all compounds hit somewhere here.
